# Screens deposited in PubChem BioAssay by Fisher Drug Discovery Resource Center.
# NPYLR7 ag – agonists of mosquito NPYLR7 receptor, primary screen, cell-based, Aedes aegypti, calcium fluorescence, mosquito biting behavior; 270,000 compounds, 0.15% hits; AID 1259423, 2018; Aedes aegypti neuropeptide Y-like receptor 7 (NPYLR7); activation, % at 10 µM; HEK293T NPYLR7/Galpha15, GCaMP6s calcium fluorescence; in the data active = activation above about 40%;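 note: 0% = vehicle and 100% = reference agonist at the receptor; some compounds past the cut are filed as inactive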
# NPYLR7 ag max-min – recorded beside NPYLR7 ag, whose call it bears; activation, %; measured here: Max-Min RFU normalised activation; some inactives read as strong as hits;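 span of the calcium signal over five minutes; 0% = vehicle and 100% = native peptide agonist; compound fluorescence can raise it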
# Active calls of the source: *. A portion of the library; the hit share may differ from the screen's.
SMILES,NPYLR7 ag,NPYLR7 ag max-min
CC(=O)c1sc2nc(CN3CCCCC3C)[nH]c(=O)c2c1C (stereo not drawn),19,8
CCCNc1cc(C)nc2c(-c3ccccc3)c(C(F)(F)F)nn12,-10,-12
O=C(CSc1nnnn1C1CC1)NCC1(N2CCOCC2)CCCCC1,5,3
Cc1ccc(S(=O)(=O)Nc2cccc(S(=O)(=O)NC3=NCCC3)c2)cc1C,17,14
COc1cccc(NC(=O)C2(C)CCN2CC2CC2)c1 (stereo not drawn),4,-2
O=C(c1c[nH]c2ncccc12)N(Cc1cccnc1)CC1CCCO1 (stereo not drawn),0,-1
CC(C)(C)c1cc(O)c(O)c(CN2CCN(c3ncccn3)CC2)c1,-1,-2
COc1cccc(Cc2nsc(Oc3cccc(C(=O)N4CCC5(CC4)OCCO5)c3)n2)c1,-4,4
CCN(CC)c1onc(-c2ccccc2)c1CN(Cc1ccco1)C(=O)Nc1cccc(Cl)c1,22,16
CN(Cc1cccnc1Cl)C(=O)c1cc(CN2CCCC(O)C2)on1 (stereo not drawn),-1,-2
Cc1nc2c(c(NC3CCN(S(=O)(=O)c4ccccc4)CC3)n1)CNC2,18,7
CC(OC(=O)c1ccc(CN2CCCCC2)cc1)C(=O)NCc1cccs1 (stereo not drawn),-4,-4
Cc1ccc(C(=O)NCc2cccnc2N2CCCN(C)CC2)c(O)c1,-6,-3
COc1ccccc1N1C(=O)/C(=C/c2ccc(-c3ccc([N+](=O)[O-])cc3)o2)C=C1c1ccccc1,1,3
CC(C)Cn1c(SCC(=O)NC(C)c2ccc(F)cc2F)nc2ncccc2c1=O (stereo not drawn),8,2
CCS(=O)(=O)c1ncc(CN(Cc2cnn(C)c2)C(C)C)n1Cc1ccccc1,2,3
COCCN(Cc1nc(C(=O)NCCc2ccccc2)cs1)C(=O)Nc1cccc(Cl)c1,15,14
Cc1noc(C(C)C)c1C(=O)NCC1CCN(C)CC1,10,1
CCCCc1ccc(C(=O)N(CC(=O)N(CCc2ccc(OC)c(OC)c2)Cc2cccs2)C(C)CC)cc1 (stereo not drawn),10,16
O=C(c1ccccc1)N1CCSC12CCN(S(=O)(=O)c1cccc3ccccc13)CC2,15,15
O=C(c1ccccc1)c1ccc2c(c1)N=C1CCCC(=O)C1C(c1cccc(O)c1)N2 (stereo not drawn),-2,-5
O=C1CCCN1CN(C(=O)c1ccc(-c2ccccc2)cc1)c1nccs1,0,-4
Cc1cc(N(C)C2CCCCC2)nc(SCc2ccc(C(=O)N3CCOCC3)o2)n1,1,4
C/C(=C\c1ccco1)CN(C)CC1CC(=O)N(C2CCCC2)C1 (stereo not drawn),3,2
COc1ccc(-n2nnc3c(SCc4ccccn4)ncnc32)cc1,16,15

# Other records follow.
SMILES,NPYLR7 ag,NPYLR7 ag max-min
Cc1ccc(C(NC(=O)C2CCN(CCOc3ccc(F)cc3)CC2)c2ccccn2)cc1 (stereo not drawn),-4,-3
CCCCCCCCS(=O)(=O)N1CCC(C(=O)NCCNC(=O)c2ccccc2)CC1,28,29
Cc1ccccc1-c1ncc(CN2CCN(C)C(C(=O)O)C2)cn1 (stereo not drawn),1,6
Cc1ccccc1COc1ccc(C=NN=C2NC(=O)CS2)cc1,14,4
O=c1[nH]c(CSc2nnc(-c3cccs3)n2C2CC2)nc2ccsc12,-1,1
CCNC(=O)N1CCN(S(=O)(=O)c2ccc(Cl)cc2)CC1,16,7
O=C1NC(=S)N/C1=C\c1cc2c(cc1[N+](=O)[O-])OCO2,4,1
COC(=O)Oc1c(Br)c(C)c2oc(=O)sc2c1Br,10,6
CCn1c(C2CCN(C(=O)NCCc3ccc(OC)cc3)CC2)n[nH]c1=O,2,4
CNS(=O)(=O)c1csc(C(=O)N(C)Cc2ccccc2C)c1,-3,-4
Cc1nn(S(=O)(=O)N2CCCC2)c(C)c1Br,-14,-18
COc1cc(C=C(C#N)S(=O)(=O)c2ccc(F)cc2)cc(Br)c1O,183*,229*
CCn1ncnc1CN1CCC(CNS(C)(=O)=O)C1 (stereo not drawn),5,4
COc1ccccc1OCC(=O)Nn1cnc2c(cnn2C(C)(C)C)c1=O,2,-2
Cc1ccc(C(=O)C(C)OC(=O)c2cc3ccccc3oc2=O)cc1 (stereo not drawn),3,1
Nc1cc(-c2cccc(Cl)c2)nn1-c1ccc(C(=O)NCCCO)cc1,-6,-13
Cc1cc2c(c(=O)[nH]1)C(=O)O/C2=C\c1ccc(C)o1,20,12
CN1CCN(c2ccc(CNC(=O)c3ccc(-c4ccc(F)c(F)c4)c4ccoc34)cc2)CC1,4,13
Cc1nc(NC(=O)c2c(C)noc2C(C)C)sc1C,-6,-5
CN(C)CCC1CN(C(=O)CCc2ccc(F)c(F)c2)CCO1 (stereo not drawn),5,3
C(=C\c1nn2c(Cn3nnc4ccccc43)nnc2s1)/c1ccccc1,3,1
CCCN1C(=O)COCc2cc(-c3cccnc3)ccc21,7,5
CSCCC(=O)N1CCC(C(=O)Nc2ccc(Oc3ccccc3F)cc2)CC1,5,0
O=C(CCOc1ccccc1)N(Cc1cccnc1)c1nc2c(F)cccc2s1,-9,-8
CCn1c(SCC(=O)N/N=C(\C)c2ccc(OC)cc2)nc2ccccc21,3,3

# Copied from the list.
# NPYLR7 ag, CN1CCN(c2ccc(CNC(=O)c3ccc(-c4ccc(F)c(F)c4)c4ccoc34)cc2)CC1 : 4
# NPYLR7 ag max-min, O=c1[nH]c(CSc2nnc(-c3cccs3)n2C2CC2)nc2ccsc12 : 1
# NPYLR7 ag, CSCCC(=O)N1CCC(C(=O)Nc2ccc(Oc3ccccc3F)cc2)CC1 : 5
# NPYLR7 ag max-min, CCCCCCCCS(=O)(=O)N1CCC(C(=O)NCCNC(=O)c2ccccc2)CC1 : 29
# NPYLR7 ag max-min, CCn1c(SCC(=O)N/N=C(\C)c2ccc(OC)cc2)nc2ccccc21 : 3
# NPYLR7 ag, CN(C)CCC1CN(C(=O)CCc2ccc(F)c(F)c2)CCO1 (stereo not drawn) : 5
# NPYLR7 ag max-min, Cc1ccc(C(NC(=O)C2CCN(CCOc3ccc(F)cc3)CC2)c2ccccn2)cc1 (stereo not drawn) : -3

# Following part:
SMILES,NPYLR7 ag,NPYLR7 ag max-min
CC(=O)N1CCC(C(=O)NCC2(Cn3ccnc3)CC2)CC1,15,9
Cc1ccn(-c2ccc(Nc3ccc(NC(=O)Nc4ccc(F)cc4)cc3)nn2)n1,-2,-2
Cc1noc(CCNC(=O)NC(C)c2cccc(OC(C)C)c2)n1 (stereo not drawn),3,1
CCC(C)N(Cc1cc(C)[nH]n1)Cc1ccccc1Cl (stereo not drawn),3,0
CCOc1ccnc(N2CCN(Cc3ccc4c(c3)OCO4)CC2)n1,-2,-4
CN=c1scc(-c2ccc([N+](=O)[O-])cc2)n1N=Cc1ccco1,-1,-3
Cc1ccc(NC2CCCN(C(=O)c3ccccc3N3CCOCC3)C2)cc1C (stereo not drawn),6,7
CC(O)CCc1ccc(Oc2ccc3nnnn3n2)cc1 (stereo not drawn),-14,-12
CC(C)n1nccc1NC(=O)c1ccc(-c2ccccc2F)o1,5,1
Cc1nc2ccc(Cl)cn2c1C(=O)N1CC2(CCNCC2)CC1C(=O)O (stereo not drawn),1,1
CCn1c(=O)n(CCC(=O)NCCc2ccccc2)c2ccccc21,13,11
Cc1cc(N2CCCN(Cc3cnc(N(C)C)s3)CC2)ccn1,-1,1
COc1cccc(NC(=O)CSc2nc(=O)n3ccccc3n2)c1,1,-3
CCOc1ccc(S(=O)(=O)N/N=C2\CCCc3ccccc32)cc1,-6,-7
COc1cc2c(cc1OC)C(c1c(F)cccc1Cl)N(C(=O)COCc1ccccc1)CC2 (stereo not drawn),-2,9
CC(=O)Nc1ccc(C(=O)N2CCC3(CCOCC3)CC2)cc1C,2,-1
CNC(=O)NC(=O)C(C)Sc1ncnc2sc3c(c12)CCC3 (stereo not drawn),-2,-3
C[n+]1ccccc1/C=N\O,2,-3
CCc1ccc2nc(N(CCCN3CCOCC3)C(=O)c3cc(Cl)sc3Cl)sc2c1,-6,-8
COc1cccc2c1OCCCN(C(=O)c1cc(C(C)C)nc(N)n1)C2,0,-3
CCC(C)C(NS(=O)(=O)c1ccc(C(C)(C)C)cc1)C(=O)Nc1nnc(-c2ccc(OC)cc2)s1 (stereo not drawn),30,30
COCCN(CC(=O)N(Cc1ccc2c(c1)OCO2)Cc1ccco1)C(=O)Nc1cccc(C(F)(F)F)c1,33,29
Cc1ccc2nc(SCC(=O)N3CCCCCC3)nc(=O)n2c1,4,-1
CCn1ccc(-c2n[nH]c(=O)n2C2CCCC2)n1,5,2
CC(C)(C)P(=NC(=O)Nc1ccccc1)(N1CCCCCC1)N1CCCCCC1,-4,-10

# A portion taken from the entries so far:
SMILES,NPYLR7 ag,NPYLR7 ag max-min
CC(=O)N1CCC(C(=O)NCC2(Cn3ccnc3)CC2)CC1,15,9
Cc1ccn(-c2ccc(Nc3ccc(NC(=O)Nc4ccc(F)cc4)cc3)nn2)n1,-2,-2
Cc1noc(CCNC(=O)NC(C)c2cccc(OC(C)C)c2)n1 (stereo not drawn),3,1
CCC(C)N(Cc1cc(C)[nH]n1)Cc1ccccc1Cl (stereo not drawn),3,0
CCOc1ccnc(N2CCN(Cc3ccc4c(c3)OCO4)CC2)n1,-2,-4

# Additional results follow.
SMILES,NPYLR7 ag,NPYLR7 ag max-min
Cc1cc(C)cc(-n2c(SCC(=O)Nc3nc(C)cs3)nc3c(c2=O)SCC3)c1,-6,-9
CN(CCCOc1ccc(F)cc1)Cc1cc2ccc(F)cc2[nH]c1=O,8,-2
CC(C)c1cccc(-c2nc3c(NCCO)nccc3[nH]2)c1,-4,-8
Cc1nc2cc(OCc3cc(C(=O)N4CCCCCC4)no3)ccc2s1,0,-2
COc1cccc(C(C)(O)c2nc(-c3ccoc3)cs2)c1 (stereo not drawn),5,3
CC(CNC(=O)[C@H]1CCC(=O)N1)Oc1ccccc1Br (stereo partly drawn),3,3
Cn1nnc2cc(C(=O)N3CCC(CO)(CCCc4ccccc4)CC3)ccc21,26,16
O=C1/C(=C/c2ccc(Cl)cc2)C=C(c2ccccc2)N1c1cccc([N+](=O)[O-])c1,5,-5
C=CCNC(=O)C(NC(=O)c1ccccc1)C1CCN(C(=O)Nc2cccc(Cl)c2)CC1 (stereo not drawn),6,3
CCc1[nH]c2ccc(CNC(=O)CCc3c(C)nn(C)c3C)cc2c1C,7,1
COc1ccc2nc(CNC(=O)c3ncc[nH]3)[nH]c2c1,12,4
CCN(Cc1ccncc1)C(=O)CN(c1cccc(F)c1)S(C)(=O)=O,8,5
CNc1cc(-c2nc(N3CCCC3)nc(C)c2C)c2cc[nH]c2n1,7,0
Cc1nn(C2CCS(=O)(=O)C2)c2nc(-c3cccs3)cc(C(=O)NC(C)C)c12 (stereo not drawn),1,4
COc1ccc(NC(=O)N(CC(=O)N(Cc2ccccc2)Cc2cccn2C)C(C)C)cc1,-3,1
O=C(NCCCn1cccn1)c1ccc2nc(C3CCCCC3)oc2c1,5,5
CN1CCN(C(=O)C23CC4CCC2(C)C4(C)CO3)CC1 (stereo not drawn),-2,-5
CCCc1cc(Nc2ccc(NC(C)=O)cc2)n2nc(C)c(-c3ccccc3)c2n1,3,14
Cc1nn(-c2ccc(C(F)(F)F)cc2)c(C)c1CCC(=O)N(C)CCc1ccccn1,-6,-7
Cc1c(C)c(C)c(S(=O)(=O)NCCN2C(=O)CSC2=O)c(C)c1C,-7,-8
Cc1ccccc1-n1ncc(C(=O)O)c1-c1ccccc1,-2,-1
COc1ccc(Nc2nc(Cl)c(/C=N\N3CCOCC3)s2)cc1,0,0
COCc1c(Br)c(C)nc(OCC(=O)N/N=C\Cc2cc(Br)cc(Cl)c2O)c1C#N,13,16
C=CCNC(=O)CN1CCNCC1,1,8
O=C1CC(N2CCc3ccccc3C2)C(=O)N1c1ccccc1 (stereo not drawn),-18,-20

# The list goes on:
SMILES,NPYLR7 ag,NPYLR7 ag max-min
C=CCN=c1scc(-c2ccc(OC(F)F)cc2)n1N=Cc1ccc(O)cc1O,-3,-15
N#Cc1nc2c(S(=O)(=O)c3ccc(Cl)cc3)c(N)n(Cc3ccc4c(c3)OCO4)c2nc1C#N,-3,-7
CCCCNC(=O)N1CCN(S(=O)(=O)c2ccc(Cl)s2)CC1,2,-2
COc1cc(C)c(NC(=O)C(C)(C)S(=O)(=O)c2ccc(Br)cc2)cc1OC,-6,-5
CC(=O)N[C@H]1C[C@@H]2c3[nH]c4ccccc4c3C[C@@H](C(=O)N(CCC#N)CC3CCCO3)N2C1=O (stereo partly drawn),7,9
CN(C)c1ccc(/C=N\NC(=O)CSc2nc3ccccc3[nH]2)cc1,0,7
Cc1noc(-c2ccc3c(c2)OCO3)c1C(=O)NCCSCc1ccccc1,15,1
CCOc1ccc2c(c1)c(=O)c(S(=O)(=O)c1ccccc1)cn2Cc1cccc(OC)c1,-6,-13
CC1(C)CC(=N)C=C(N2CCOCC2)C1,5,11
CCCCNC(=O)C1(C)CCCCN1C(=O)C1(c2ccc(Cl)cc2)CCCC1 (stereo not drawn),3,2
Cc1cccc(NC(=O)CNC(=O)CN(Cc2ccco2)C(=O)c2cccc([N+](=O)[O-])c2)c1,-4,0

# Structures listed so far containing a thiophene ring, fused or not (nine):
SMILES,NPYLR7 ag,NPYLR7 ag max-min
CC(=O)c1sc2nc(CN3CCCCC3C)[nH]c(=O)c2c1C (stereo not drawn),19,8
CC(OC(=O)c1ccc(CN2CCCCC2)cc1)C(=O)NCc1cccs1 (stereo not drawn),-4,-4
CCCCc1ccc(C(=O)N(CC(=O)N(CCc2ccc(OC)c(OC)c2)Cc2cccs2)C(C)CC)cc1 (stereo not drawn),10,16
O=c1[nH]c(CSc2nnc(-c3cccs3)n2C2CC2)nc2ccsc12,-1,1
CNS(=O)(=O)c1csc(C(=O)N(C)Cc2ccccc2C)c1,-3,-4
CNC(=O)NC(=O)C(C)Sc1ncnc2sc3c(c12)CCC3 (stereo not drawn),-2,-3
CCc1ccc2nc(N(CCCN3CCOCC3)C(=O)c3cc(Cl)sc3Cl)sc2c1,-6,-8
Cc1nn(C2CCS(=O)(=O)C2)c2nc(-c3cccs3)cc(C(=O)NC(C)C)c12 (stereo not drawn),1,4
CCCCNC(=O)N1CCN(S(=O)(=O)c2ccc(Cl)s2)CC1,2,-2
